Screening data (PubChem)
GALR2 ag = GALR2 (human) receptor agonism; 140,000 compounds, 0.48% hits; GALR2-expressing cells, agonist activation read-out; O43603; AID 803; activation, %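 (tested at 5 µM)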;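 active means above mean plus 3 SD of all compounds, about 5% in these data, not always enough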;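 further: 0% = vehicle buffer wells and 100% = reference agonist at full effect; tested in CHO reporter cells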
RGS16-Gao = RGS16-Galphao interaction regulator (human) | bead-based flow cytometry RGS16-Galphao binding, fluorescence; actives lie on both sides | binding response (% of control), % at 10 µM | 220,000 compounds, 0.38% hits | O15492+P09471;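 active means below 25% or above 175%, edge rows of some plates excepted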;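 further: Galphao activated by GDP with aluminum fluoride before binding; 100% = wells without compound and 0% = beads without RGS; some results beyond the cut were filed as inactive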
PKD1 inh = PKD1 (human) kinase inhibition; Q15139; PKD1 kinase fluorescence polarization assay; inhibition, %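 (about 10 µM by stock and volumes)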; 200,000 compounds, 0.056% hits; AID 797;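 active means inhibition of 50% or more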;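 further: controls were vehicle for no effect and a reference inhibitor for full effect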
Target sequence (Q15139 whole entry, looked up): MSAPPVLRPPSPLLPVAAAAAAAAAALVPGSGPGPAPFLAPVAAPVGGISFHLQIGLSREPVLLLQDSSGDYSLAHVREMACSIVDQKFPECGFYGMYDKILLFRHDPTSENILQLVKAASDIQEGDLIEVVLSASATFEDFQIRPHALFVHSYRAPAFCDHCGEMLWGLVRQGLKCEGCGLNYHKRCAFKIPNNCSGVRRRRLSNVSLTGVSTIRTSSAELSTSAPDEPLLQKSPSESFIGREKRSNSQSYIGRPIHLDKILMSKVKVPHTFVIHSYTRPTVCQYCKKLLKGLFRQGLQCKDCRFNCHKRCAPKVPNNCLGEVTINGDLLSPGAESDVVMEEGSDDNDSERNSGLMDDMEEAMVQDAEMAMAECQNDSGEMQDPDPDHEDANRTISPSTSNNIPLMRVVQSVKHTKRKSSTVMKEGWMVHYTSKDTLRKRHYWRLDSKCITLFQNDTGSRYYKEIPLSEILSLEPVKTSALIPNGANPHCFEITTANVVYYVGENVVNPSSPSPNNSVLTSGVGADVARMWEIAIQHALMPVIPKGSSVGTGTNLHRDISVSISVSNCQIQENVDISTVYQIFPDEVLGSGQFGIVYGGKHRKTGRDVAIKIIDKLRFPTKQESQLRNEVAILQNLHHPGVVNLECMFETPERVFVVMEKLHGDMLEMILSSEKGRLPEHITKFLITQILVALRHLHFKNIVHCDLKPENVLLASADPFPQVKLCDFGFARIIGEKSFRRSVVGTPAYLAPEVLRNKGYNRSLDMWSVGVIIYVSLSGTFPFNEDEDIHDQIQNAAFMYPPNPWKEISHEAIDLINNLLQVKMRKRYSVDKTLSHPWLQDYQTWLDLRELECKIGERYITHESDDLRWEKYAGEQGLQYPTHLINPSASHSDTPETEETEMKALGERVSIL
Insulin prom inh = TRM-6 insulin promoter activity inhibition; inhibition, % at 2 µM; TRM-6 cells (human fetal islet line), insulin promoter-eGFP reporter, imaging; reporter expression induced with tamoxifen; 130,000 compounds, 0.9% hits;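 active means inhibition above the mean plus 3 SD, with well images judged a real hit on visual review, cut at about 60% in these data, passing the limit was not always enough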
HSV augment = increases HSV replication in cells. 220,000 compounds, 0.005% hits. maximum fold increase. HSV replication augmentation in cells, fold increase;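 active means peak rise of 1.5-fold or more in the series; tested in PC3 cells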;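 further: first round at 10 µM; read as green reporter fluorescence; hits show the peak of a series up to 25 µM; 1 = signal of infected wells without compound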
Insulin prom inh cell count = second read-out of Insulin prom inh, no call of its own (marks repeat the call); normalized cell count, %; measured here: cell count, toxicity; reference of the scale not given here;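 cells exposed to compound for 48 h; stained nuclei by imaging scaled within each plate; lower means fewer cells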
HSV augment primary fold = further read-out of HSV augment, marked with its call; fold increase; compound at 10 µM; measured here: primary screen fold increase 10 uM; tested in PC3 cells;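 GFP signal in the first replicate; 1 = infected wells without compound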
* marks the source's active call; other numbers are inactive results; i = inactive; x = no result given.

Start of the data: the first 3 records (preview)
SMILES	GALR2 ag	RGS16-Gao	PKD1 inh	Insulin prom inh	Insulin prom inh cell count	HSV augment	HSV augment primary fold
O=C(CC(Sc1ccccc1)c1cccs1)c1ccco1 (stereo not drawn)	-2.8	95.1	2.0	x	x	i	0.91
CCCn1c(=O)c(C(=O)Nc2ncccc2C)c(O)c2ccccc21	x	112.2	-9.0	x	x	i	1.02
COCCN(C(=O)CSc1nc2ccccc2c(=O)n1C(C)COC)c1c(N)n(Cc2ccccc2)c(=O)[nH]c1=O (stereo not drawn)	x	101.7	-0.4	x	x	i	0.94

The listing, from the start:
SMILES	GALR2 ag	RGS16-Gao	PKD1 inh	Insulin prom inh	Insulin prom inh cell count	HSV augment	HSV augment primary fold
O=C(CC(Sc1ccccc1)c1cccs1)c1ccco1 (stereo not drawn)	-2.8	95.1	2.0	x	x	i	0.91
CCCn1c(=O)c(C(=O)Nc2ncccc2C)c(O)c2ccccc21	x	112.2	-9.0	x	x	i	1.02
COCCN(C(=O)CSc1nc2ccccc2c(=O)n1C(C)COC)c1c(N)n(Cc2ccccc2)c(=O)[nH]c1=O (stereo not drawn)	x	101.7	-0.4	x	x	i	0.94
CC(=O)c1c(C)[nH]c(C(=O)NCCc2cccc(C)c2)c1C	-2.1	93.5	5.7	-46.1	83.2	i	0.987
COc1cccc2c(=O)cc(C)n(CC(=O)Nc3ccc(Br)cc3)c12	x	96.6	x	x	x	i	0.85
COc1ccc(C(=O)Nc2ccc(C3CC3(Cl)Cl)cc2)cc1 (stereo not drawn)	x	102.8	8.5	x	x	i	1.11
Cc1nc2c(ncn2-c2ccccc2)c(=O)n1NC(=O)CN1CCN(C)CC1	x	100.9	x	x	x	i	1
CCOC(=O)Cn1nc(C)c(NC(=O)COc2ccccc2)c1C	x	101.8	-2.5	x	x	i	1.01
CCOC(=O)/C(=N\Nc1ccccc1Cl)N(C)C1CCCCC1	x	98.0	-0.5	x	x	i	0.97
O=C(c1ccccc1)c1cccn1CC(=O)N1CCN(c2ccccc2)CC1	-0.6	101.7	-3.7	-42.3	113.1	i	0.987
C/C(N)=C(/C#N)C(=O)CSc1nc(C2CCCCC2)n(-c2ccccc2)n1	-2.5	94.4	-2.8	-10.7	108.8	i	0.87
O=[N+]([O-])c1ccc2[nH]ncc2c1	x	101.3	-0.3	-21.4	97.0	i	0.94
CCCCCSc1nc2c(c(=O)[nH]c(=O)n2C)n1C(C)C	-1.1	102.4	-11.2	x	x	i	1.1
CC1(C)Cc2c(ccc3ccccc23)C2=C(C(=O)N3CCCC3)C(=O)C(=O)N21	x	99.5	-6.4	26.7	139.7	i	0.93
CCC(C)(C)n1nnnc1C(c1ccc(C)cc1)N1CCSCC1 (stereo not drawn)	-2.2	96.6	0.4	-17.1	95.3	i	1.02
Cc1ccc(CNC(=O)C2CC(=O)OC23CCCC3)c(C)c1 (stereo not drawn)	-1.5	97.5	-2.1	-31.4	104.7	i	1.11
Cn1c(COc2nnc(-c3ccc(Cl)cc3)c3ccccc23)nc2ccccc21	-3.6	109.8	8.7	0.0	80.5	x	x
CC(C)NC(=O)CN1C(=O)c2ccccc2S1(=O)=O	x	110.2	-5.8	x	x	i	1.09
COc1cccc(N2CC(C(=O)OC(C)C(=O)c3ccccc3)CC2=O)c1 (stereo not drawn)	-2.5	103.2	-4.0	6.2	80.0	i	0.84
CC(C)CNc1oc(-c2ccccc2Cl)nc1C#N	x	100.1	-3.6	x	x	i	1.06
COc1cccc(/C=C/c2ccncc2)c1OC	0.1	87.9	-8.1	x	x	x	x
C1CCc2nnc(C3CC3)n2CC1	x	102.1	-7.3	-29.4	137.8	i	1.07
CCOC(=O)C(=O)c1c(-c2ccccc2)nc2ccccn12	x	101.8	7.3	-450.0	60.1	i	0.95
COc1ccc(OC)c(S(=O)(=O)N2CCCCC2C(=O)N2CCN(c3ccccn3)CC2)c1 (stereo not drawn)	-1.6	113.6	-9.4	0.0	100.0	i	0.94
CCC(=O)N/N=C(\C)CC(=O)Nc1cccc([N+](=O)[O-])c1	-0.8	101.2	2.9	x	x	i	1.01
C/C(=N\NC(=O)COc1ccccc1)c1ccc(O)cc1	x	111.8	2.4	x	x	i	0.99
Cc1ccccc1N1CCN(Cc2c[nH]c3ccccc23)CC1	-0.6	99.2	4.2	43.5	142.6	i	0.83
CN1CCN(c2ccc(NC(=O)c3ccc(C(F)(F)F)cc3)cn2)CC1	x	100.5	-9.8	x	x	i	0.85
O=C(CCc1ccc(S(=O)(=O)NCc2ccccc2)cc1)NCc1ccco1	-2.0	104.5	1.0	21.4	135.7	i	0.72
FC(F)(F)c1cccc(NC(=S)N2CCCCCC2)c1	x	55.4	-5.2	x	x	i	1
COc1ccc(CN=C(NS(=O)(=O)c2cccs2)SC)cc1	2.9	46.9	3.2	x	x	i	1.2
O=C(Cc1ccccc1[N+](=O)[O-])NCc1ccc(Cl)cc1	-1.1	105.3	-9.9	-25.0	122.7	i	1.02
Cc1ccc(-c2nc(C3CCCN(S(=O)(=O)c4ccc(C)cc4)C3)no2)cc1 (stereo not drawn)	-3.0	121.7	5.4	x	x	i	1.01
Cc1ccnc(NC(=O)Nc2cccc(F)c2)c1	-2.6	86.2	3.7	6.2	97.2	i	0.8
O=C(O)C1(c2ccccc2)CCN(S(=O)(=O)c2ccc(Cl)s2)CC1	x	93.5	x	x	x	i	0.72
O=C(Nc1nc2ccccc2c2nc3ccccc3n12)c1ccc(F)cc1	0.0	110.0	-4.9	13.3	60.5	i	0.98
CCC(C)(C(=O)NC1CCCC1)N(C(C)=O)c1ccc(C)cc1 (stereo not drawn)	-0.9	97.1	2.9	-18.8	125.6	i	0.98
Nc1c(C(=O)NCc2ccco2)nnn1Cc1ccccc1	-1.8	101.4	-4.9	17.2	118.8	i	0.9
CCOC(=O)C1=C(CS(=O)(=O)c2ccccc2)NC(=O)NC1c1ccccc1OCC (stereo not drawn)	-1.9	101.8	-2.4	x	x	i	0.98
CCOC(=O)N1CCC2(CC1)C(C#N)=C(N)OC1=C2C(=O)CC(C)(C)C1	-1.4	104.1	-5.7	20.0	73.5	i	0.97
Brc1ccc(CSc2nccn2-c2ccccc2)cc1	-0.9	101.8	-18.2	40.0	117.2	i	0.94
COc1ccc(NC(=O)CSc2nnc(CNC(=O)c3ccco3)n2-c2ccccc2OC)cc1	-2.5	102.2	-0.2	24.2	71.9	x	x
CCc1ccc(NC(=O)N(CCOC)C2CCN(C(C)=O)CC2)cc1	-1.1	95.0	-1.3	-34.4	89.6	i	0.8
CCOC(=O)C1=C(c2ccccc2)N=c2s/c(=C\c3ccc(O)cc3)c(=O)n2C1c1cccs1 (stereo not drawn)	0.2	104.2	-4.0	-60.0	43.0	i	1.02
O=C(CN1CCCC(O)C1)N1c2ccccc2Sc2ccc(C(F)(F)F)cc21 (stereo not drawn)	0.7	103.1	-2.9	x	x	i	0.87
O=C(c1cccn2c(=O)c3cc(Br)ccc3nc12)N1CCN(c2ccccn2)CC1	-0.5	98.0	-6.2	-40.0	89.2	i	0.99
Cc1ccc(CNC(=O)CCS(=O)(=O)c2ccc(Cl)cc2)cc1	-2.2	102.3	4.8	x	x	i	0.97
Cc1cc(C)n(C(=O)CSc2nc3ccccc3o2)n1	-0.9	105.3	-3.4	-55.6	109.6	i	0.82
COC(=O)c1[nH]c2ccc(Br)cc2c1NC(=O)C(C)N1CCN(C2CCCCC2)CC1 (stereo not drawn)	0.7	99.9	-3.9	x	x	i	0.963
O=C(c1cccc(S(=O)(=O)Nc2cccc(C(F)(F)F)c2)c1)N1CCOCC1	x	97.3	x	x	x	i	1.06
CCN1C(=O)CC(N2CCN(c3ccc(OC)cc3)CC2)C1=O (stereo not drawn)	-1.6	103.1	-10.1	42.9	142.4	i	0.85
Cc1cccc(NC(=O)c2cc(-c3ccc(C)s3)nc3ccccc23)n1	-1.6	102.1	-0.7	-23.3	84.1	i	0.77
CC1=CC(C)[C@H](/C=N/n2c(=O)[nH]c3c([nH]c4ccc(Br)cc43)c2=O)C(C)C1 (stereo partly drawn)	x	98.2	4.3	-10.0	100.4	i	0.88
O=C(C1CCCCN1S(=O)(=O)c1ccccc1[N+](=O)[O-])N1CCOCC1 (stereo not drawn)	x	101.7	-2.7	-33.3	96.3	i	1
Cn1ccnc1SCC(=O)Nc1cccc(C(F)(F)F)c1	-1.1	104.5	-1.0	x	x	i	0.94
CC(C)CNC(=O)Nc1ccccc1F	x	98.6	1.8	x	x	i	1.06
CCOC(=O)C(O)(CC(=O)c1ccc(OC)cc1)C(F)(F)F (stereo not drawn)	-2.8	41.9	0.9	50.0	132.4	i	0.78
CC1=C(C#N)C(c2ccccc2O)C(C#N)=C(C)N1	x	106.4	-3.4	53.9	111.3	x	x
CC1CCCCN1C(=O)Cc1ccc(F)cc1 (stereo not drawn)	-1.5	111.0	-13.6	38.5	140.4	i	0.92
C=CCNC(=S)N1CC2(C)CN(C(=S)NCC=C)CC(C)(C1)C2=O	x	99.8	x	x	x	i	0.96

(continued)
SMILES	GALR2 ag	RGS16-Gao	PKD1 inh	Insulin prom inh	Insulin prom inh cell count	HSV augment	HSV augment primary fold
COc1cccc(C(=O)N2CCN(C(=O)c3cccc4ccccc34)CC2)c1OC	-2.4	99.6	-2.8	0.0	83.0	i	0.88
Cc1nc2ccc(NC(=O)N3CCN(c4ccccn4)CC3)cc2s1	-4.2	107.5	-8.0	18.2	138.1	i	0.99
Cc1ccc2oc(=S)n(C)c2c1	-1.2	99.9	-10.6	-41.7	57.1	i	0.95
COc1cc2c(cc1NC(=O)COC(=O)C(CCSC)NC(=O)c1ccccc1Cl)oc1ccccc12 (stereo not drawn)	-1.7	102.7	-5.5	16.2	52.5	i	0.85
CCCCc1c(O)nc2sccn2c1=O	-2.4	119.7	-5.4	34.2	110.5	i	1.01
N#CC1=C(N)Oc2ccc3ccc(O)cc3c2C1c1cccnc1 (stereo not drawn)	0.4	100.1	-5.5	2.3	84.4	i	0.89
O=c1ccnc(SCc2ccccc2Cl)[nH]1	-2.1	104.9	-5.5	20.0	134.1	i	0.82
Nc1ccc(C(O)(C(F)(F)F)C(F)(F)F)cc1	-2.3	89.9	-2.9	28.1	29.5	i	0.88
Cc1ccc(C(=O)N2CCC(C)CC2)cc1C	-0.9	100.4	1.7	-380.0	61.2	i	0.98
CCN1CCN(c2nc(Nc3ccccc3)nc(N)c2[N+](=O)[O-])CC1	-1.3	197.7	10.8	x	x	i	0.97
COc1ccccc1-n1cnnc1SCC(=O)N1CCN(S(=O)(=O)c2ccccc2)CC1	-1.0	101.4	-5.5	x	x	i	1
CC1(c2nnc(-c3ccc(F)cc3)o2)CC(c2ccc(F)cc2)=NO1 (stereo not drawn)	x	92.3	x	x	x	i	0.82
O=S(=O)(NCc1ccc2c(c1)OCO2)c1ccc2c(c1)oc1ccccc12	-1.9	96.6	-6.3	-388.2	43.9	i	0.92
CCCOc1ccc(-c2nc(C#N)c(NCC3CCCO3)o2)cc1 (stereo not drawn)	-0.4	93.9	-6.6	-10.7	106.2	i	0.76
CCN(CC)C(=O)CSc1nnc([C@H](Cc2c[nH]c3ccccc23)NC(=O)OC(C)(C)C)o1	-0.3	61.7	-1.1	x	x	i	0.95
CCCN1C(=O)c2ccc(C(=O)NC3=NCCS3)cc2C1=O	-0.7	85.7	5.0	65.7	115.6	i	0.88
Cc1cccc(OCC(=O)Nc2ccc(N3CCN(C(=O)c4ccco4)CC3)cc2)c1C	x	104.7	-1.1	52.2	161.2	i	0.89
Cc1cc(C)cc(NC(=O)CCn2cnc3cc(C)c(C)cc32)c1	x	168.0	-3.6	-20.0	105.3	i	1.05
CC(c1ccccc1)n1cc(C(=O)NCC2CCCO2)nn1 (stereo not drawn)	0.8	100.1	-6.6	-10.5	112.5	i	0.99
COc1ccc(OCC(O)CNC(=O)c2sccc2Cl)cc1 (stereo not drawn)	x	93.7	x	x	x	i	1.15
COc1cc(C2C(C(=O)c3cccs3)=C(O)C(=O)N2c2cc(C)on2)ccc1O (stereo not drawn)	-2.4	101.3	11.9	x	x	i	1.04
Cc1cccc(OCCNC(=O)c2cc(-n3cnnc3)ccc2Cl)c1	0.1	102.2	1.2	x	x	i	1.31
Cc1ccccc1-n1c(SC(C)C(N)=O)nnc1-c1cccnc1 (stereo not drawn)	0.1	87.9	-14.8	x	x	i	0.7
COc1ccc(/C=C/C(=O)OC2CCCCC2CN(C)C)cc1 (stereo not drawn)	x	101.2	x	x	x	i	1.08
CSc1ccc(S(=O)(=O)Nc2ccc(F)cc2)cc1	-2.1	78.8	-1.1	-420.0	47.4	i	1.04
Cc1nc(N)sc1N=Nc1ccc(F)cc1	-1.8	92.6	1.5	-33.3	114.2	i	0.91
